KCNQ2 inh – KCNQ2 potassium channel inhibitors, primary screen, cell-based, CHO-K1, FluxOR thallium flux, B-score (AID 2156); O88943; 20 min; active compounds read low; only compounds with negative scores are shown here; some inactives read as strong as hits; B-score at 10 µM; 310,000 tested, 1.1% active;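 active means fluorescence ratio B-score at most minus 3 library SDs, with starting brightness B-score within 2 library SDs, cut at about -5.5 in these data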
Target sequence (O88943 whole entry, looked up): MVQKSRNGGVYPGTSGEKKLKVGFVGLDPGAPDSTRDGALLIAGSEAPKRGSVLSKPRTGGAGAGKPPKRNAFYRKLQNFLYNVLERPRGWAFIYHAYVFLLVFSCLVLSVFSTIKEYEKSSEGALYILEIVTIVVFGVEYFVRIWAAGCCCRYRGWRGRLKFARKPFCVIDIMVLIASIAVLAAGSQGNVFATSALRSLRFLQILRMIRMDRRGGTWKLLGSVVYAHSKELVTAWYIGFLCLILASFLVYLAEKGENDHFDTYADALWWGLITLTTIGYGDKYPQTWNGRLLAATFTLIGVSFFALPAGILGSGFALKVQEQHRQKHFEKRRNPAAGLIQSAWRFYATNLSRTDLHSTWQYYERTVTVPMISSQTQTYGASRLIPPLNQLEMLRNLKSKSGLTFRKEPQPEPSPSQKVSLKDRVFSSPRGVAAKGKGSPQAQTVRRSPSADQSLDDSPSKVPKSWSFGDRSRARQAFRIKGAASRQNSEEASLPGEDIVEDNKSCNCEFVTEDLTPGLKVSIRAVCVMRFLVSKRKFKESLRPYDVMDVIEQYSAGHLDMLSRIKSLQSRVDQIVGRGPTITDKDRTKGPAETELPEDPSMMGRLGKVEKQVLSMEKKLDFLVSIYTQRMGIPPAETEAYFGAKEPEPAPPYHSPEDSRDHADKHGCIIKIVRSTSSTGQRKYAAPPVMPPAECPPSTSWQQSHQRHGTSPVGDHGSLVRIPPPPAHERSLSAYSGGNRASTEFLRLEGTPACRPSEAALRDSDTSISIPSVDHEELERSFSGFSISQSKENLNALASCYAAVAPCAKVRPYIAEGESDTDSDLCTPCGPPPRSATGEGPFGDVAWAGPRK
KCNQ2 inh baseline – second read-out of KCNQ2 inh, no call of its own (marks repeat the call); B-score; measured here: initial fluorescence intensity artifact check;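 brightness before thallium and not channel activity; 0 = typical well and far values either way flag optical interference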
* marks the source's active call; other numbers are inactive results; i = inactive.

Start of the listing, in advance:
SMILES	KCNQ2 inh	KCNQ2 inh baseline
CC(Oc1ccc(C(C)(C)C)cc1)c1ccnc2nc(/N=C/N(C)C)nn12 (stereo not drawn)	i	3.6
Cc1c(NC(=O)Oc2ccccc2)sc(=S)n1C	i	0.44

The whole of this part, repeating the preview:
SMILES	KCNQ2 inh	KCNQ2 inh baseline
CC(Oc1ccc(C(C)(C)C)cc1)c1ccnc2nc(/N=C/N(C)C)nn12 (stereo not drawn)	i	3.6
Cc1c(NC(=O)Oc2ccccc2)sc(=S)n1C	i	0.44
OCCC1CN(Cc2cccn2-c2cccnc2)CCN1Cc1ccc(F)cc1 (stereo not drawn)	i	1.8
COc1ccc(-c2csc(N(CCc3ccc(OC)c(OC)c3)C(=O)COc3ccccc3)n2)cc1	i	-1.6
COc1cc2c(cc1OC)C1(Nc3c-2c(Cc2ccccc2)nn3-c2ccccc2)C(=O)Nc2ccccc21 (stereo not drawn)	i	0.91
CCOC(=O)c1cc(-c2ccc(F)cc2)n(CCC(=O)NC2CCN(Cc3ccccc3)CC2)c1C	i	0.1
CCOc1ccc(C2c3[nH]c4ccccc4c3C[C@H]3C(=O)N(C4CCN(Cc5ccccc5)CC4)CC(=O)N23)cc1OC (stereo partly drawn)	i	0.98
COCC1CCCCN1C(=O)c1cccc(OC2CCN(C(=O)C3CC3)CC2)c1 (stereo not drawn)	i	0.34
Cc1c(C)c2ccc(OC(C)C(=O)NCCc3c[nH]c4ccccc34)cc2oc1=O (stereo not drawn)	i	-0.93
Cc1cccnc1Nc1nc(-c2ccc(O)c(O)c2)cs1	i	-1.4
O=C(CCc1ccccc1)NNC(=O)COc1ccc(Cl)cc1	i	-1.2
COC(=O)c1nnn(CC(=O)NC(=O)Nc2cccc(Cl)c2C)c1C(=O)OC	i	0.02
CSCCC(NS(=O)(=O)c1ccc(Cl)cc1)C(=O)OCC(=O)N(C(C)C)C(C)C (stereo not drawn)	i	0.18
CC(=O)NC(c1ccccc1)c1c(O)ccc2ccccc12 (stereo not drawn)	i	-0.25
CCc1c(C)sc(NC(=O)c2cccs2)c1C(=O)OC(C)C	i	0.21
C=CCNc1nc2c(c(=O)n(C)c(=O)n2C)n1CC(=C)C	i	-0.59
CN(C)c1ccc(C(CNC(=O)c2ccc(C#N)cc2)c2c[nH]c3ccccc23)cc1 (stereo not drawn)	i	1.8
CC(=O)N(C1=C(N)C(=O)c2ccccc2C1=O)C(C)C	i	0.53
Cc1nn(CCCC(=O)NCc2ccccc2)c(=O)c2nccn12	i	-0.35
O=C(NCC1CC1)c1onc(CSc2ccccc2)c1C(=O)NCC1CC1	i	-0.04
Cc1cc(NS(=O)(=O)c2ccc(NC(=O)C3CCCCC3)cc2)no1	i	-0.68
COc1ccccc1CNC(=O)C1CC2Cn3c(nc4cc(Cl)c(Cl)cc43)C2N1C (stereo not drawn)	i	-1.5
COc1cc(OC)c(NC(=S)NCc2ccccc2)cc1Cl	i	-1.1
Cc1ccc2nc(NCc3ccccc3)c(C#N)cc2c1	i	-0.06
O=C(CC1C(=O)N(Cc2ccccc2)C(=S)N1CCN1CCOCC1)Nc1ccc(F)cc1 (stereo not drawn)	i	0.35
SMILES	KCNQ2 inh	KCNQ2 inh baseline
O=C(O)CSc1nnc(-c2cccc(S(=O)(=O)N3CCOCC3)c2)n1-c1cccc(Cl)c1	i	-0.11
Cc1ccccc1N=C(NOCc1ccc(Cl)cc1Cl)c1nonc1N	i	0.91
Cc1ccc(CN2C(=O)C(CC(C)C)Nc3ncnc(N4CCN(c5ccccn5)CC4)c32)cc1 (stereo not drawn)	i	-1.2
CC(=O)c1cnc2c(-c3ccc(Cl)cc3)c(C)nn2c1C	-5.8*	0.79*
Oc1ccc(-n2nnnc2SCc2ccccc2Br)cc1	i	-0.04
O=C(CSCc1cccs1)N1CCCC1	i	0.95
CCN(CC)C(=O)CSc1nc2cc3c(cc2c(=O)n1Cc1ccc(OC)cc1)OCO3	i	-0.39
Cc1cc(C)c2c(n1)SCC(=O)N2CC(=O)Nc1ccc(Br)c(C)c1	i	0.57
O=C1CCC(C(=O)N2CCC(CO)CC2)CN1Cc1ccc(Cl)cc1 (stereo not drawn)	i	-0.33
Cc1cccc(COCC(Cc2ccccc2)N2CCN(C(=O)c3cccc(C)c3)CCC2=O)c1 (stereo not drawn)	-5.8*	-1.4*
CC(C)N(C(=O)C[n+]1ccsc1N)c1ccccc1	i	-1.3
O=C(Nc1c2c(nn1-c1ccc([N+](=O)[O-])cc1)CS(=O)(=O)C2)c1cccs1	i	0.13
CN(CC(=O)Nc1ccccc1Cl)CC(=O)Nc1ccccc1[N+](=O)[O-]	i	-0.38
CC1C2C(c3ccccc3)N(C)C(=O)N(C)C2N(C)C(=O)N1C (stereo not drawn)	i	1
CCn1nc(C)cc1C(=O)N1CCCC(N2CCN(c3ccccc3OC)CC2)C1 (stereo not drawn)	i	-0.34
Cc1cc(C(=O)CN2C(=O)NC3(CCCCC3)C2=O)c(C)n1C	i	-0.03
NC1=NC[C@H](CC2CCCCC2)N1CCc1cc(C(F)(F)F)cc(C(F)(F)F)c1	i	-1.3
CCOC(=O)c1[nH]c(C)c(CCC(=O)O)c1C	i	0.21
COc1ccccc1CNC(=O)c1ccc2c(=O)n(CC3CCCO3)c(=S)[nH]c2c1 (stereo not drawn)	i	-0.66
COc1ccc(-c2ccnc(SCC(=O)N3CCN(c4ccccc4)CC3)n2)cc1	i	0.68
CCN(CC)CCN1CCn2c3c(c4cc(C)ccc42)CCCC31 (stereo not drawn)	i	-0.57
Cc1cc(N(CC(=O)NC2CC2)S(C)(=O)=O)ccc1Br	i	-1.7
CCC(C)NS(=O)(=O)c1ccc(S(=O)(=O)N(CC(=O)Nc2ccccc2)CC2CCCO2)cc1 (stereo not drawn)	i	0.74
Cc1cccc(OCC(=O)NCC(c2cccs2)N2CCOCC2)c1 (stereo not drawn)	i	0.68
O=C(Cn1nnc2ccccc21)Nc1ccc([N+](=O)[O-])cc1	i	-0.02
SMILES	KCNQ2 inh	KCNQ2 inh baseline
COc1ccc(/C=C(/NC(=O)c2ccco2)C(=O)Nc2ccc(C(=O)O)cc2)cc1	i	0.37
CC(C)N(C(=O)CO/N=C/c1cccc([N+](=O)[O-])c1)C(C)C	i	0.16
NS(=O)(=O)c1ccc(CCNC(=O)[C@@H]2CCCN2S(=O)(=O)c2ccccc2F)cc1	i	-0.75
Cc1c(S(=O)(=O)NC2CCCCCC2)c(=O)n(C)c(=O)n1C	i	-0.7
COC(=O)[C@H](Cc1ccccc1)NC(=O)NCCC1=CCCCC1	i	2.1
Cc1cc(F)ccc1NCc1ccccc1[N+](=O)[O-]	i	-0.13
CC(=NCc1ccco1)c1c(C(F)(F)F)[nH]n(-c2nc3ccccc3s2)c1=O	i	-0.11
Cc1oc2cc(O)ccc2c(=O)c1Oc1ccc2ccccc2c1	i	-3
Cc1ccc(C(NC(=O)/C=C\c2ccc3c(c2)OCO3)C(=O)Nc2ccc3c(c2)OCO3)cc1 (stereo not drawn)	i	0.32
CCN(C(=O)CN1CCN(c2cccc(C(F)(F)F)c2)CC1)c1c(N)n(Cc2ccccc2)c(=O)[nH]c1=O	i	-0.87
COC(=O)CCCNc1ncccc1[N+](=O)[O-]	i	-0.54
COc1ccccc1Nc1ncnc2ccccc12	i	0.43
Fc1cccc(Cn2cc(C(=S)N3CCOCC3)c3ccccc32)c1	i	-0.33
COc1ccc(NC(=O)Cn2ncc(Cl)c(Cl)c2=O)cc1S(=O)(=O)N1CCOCC1	i	0.1
COc1cccc(C(C(=O)NC2CCCC2)N(C(=O)c2ccco2)c2ccc(-n3cnnn3)c(C)c2)c1OC (stereo not drawn)	i	0.01
COC(=O)c1cc(OC)c(OC)cc1NC(=O)c1ccc(C)o1	i	1.1
O=C(NC1CCCCC1)C(c1ccc(F)cc1)N(C(=O)c1csnn1)C1CC1 (stereo not drawn)	i	0.32
Cc1ccc(-n2nnnc2SCc2nnc(-c3ccccc3Br)o2)cc1	i	0.93
O=C(Cc1csc(-c2ccccc2)n1)NCc1ccc(F)cc1	i	-0.51
CCCN1C/C(=C/c2ccc3c(c2)OCO3)C(=O)/C(=C/c2ccc3c(c2)OCO3)C1	i	0.93
CCOC(=O)c1cc(-c2ccccc2)sc1N	i	0.35
Cc1ccc(C(=O)c2oc3ccc(Cl)cc3c2NC(=O)CN2CCN(C)CC2)cc1	i	-0.14
COc1cc(C(c2sc3nc(C)nn3c2O)N2CC(C)CC(C)C2)cc(OC)c1OC (stereo not drawn)	i	2.1
Cc1ccc(O)c(NC(=O)C2CCCN2C(=O)OCc2ccccc2)c1 (stereo not drawn)	i	1.3
CC1(C)C2CCC1(CS(=O)(=O)NCCc1c[nH]c3ccccc13)C(=O)C2 (stereo not drawn)	i	-0.47
SMILES	KCNQ2 inh	KCNQ2 inh baseline
NC(=O)CC(NC(=O)Cc1cccc2ccccc12)c1ccc(N2CCCCCCC2)c([N+](=O)[O-])c1 (stereo not drawn)	i	0.12
COc1ccccc1C(CCN(Cc1ccccc1)C(C)=O)c1ccco1 (stereo not drawn)	i	-2.8
COc1cc(C(C)=O)ccc1OCC(=O)c1cc(C)n(C2CC2)c1C	i	-0.28
O=C(O/N=C1\C(=O)N(c2ccccc2)c2ccccc21)C1CC1	i	3.9
c1ccc(-n2c(-c3ccncc3)nnc2-c2ccco2)cc1	i	-0.35
c1ccc(Oc2cccc(OCCCCSc3ncccn3)c2)cc1	-6.2*	0.46*
Cc1ccc(N(CC(=O)NCC2CCCO2)C(=O)CCC(=O)Nc2nccs2)cc1C (stereo not drawn)	i	-0.84
CCn1c(SCC(=O)Nc2ccc(C(=O)OC)cc2)nc2cccnc21	i	1.2
CC(=O)N/C(=C\c1ccccc1)C(=O)OCc1ccc(F)cc1	i	0.02
CCOc1ccc(-c2nnn(CC(=O)Nc3cc(OC)cc(OC)c3)n2)cc1OCC	i	0.78
COc1ccc(C(=O)Nc2cc(C)c(NC(=O)c3ccccc3OC)cn2)cc1	i	0.02
C=CCn1c(SCC(=O)Nc2ccc(N(C)C)cc2)nnc1-c1cccc(C)c1	i	-0.91
COCC(=O)Nc1nnc(COc2ccc(Cl)cc2)s1	i	0.76
CCN1CCCc2cc(CN(CCN3CCOCC3)C(=S)Nc3ccc(C)cc3)ccc21	i	-0.49
CCC(C(=O)OCC(=O)Nc1ccc(C)c(S(=O)(=O)N2CCOCC2)c1)c1ccccc1 (stereo not drawn)	i	1.2
Cc1ccc(S(=O)(=O)Nc2cc3c(C(=O)O)c(C)oc3c3ccccc23)c(C)c1	i	0.82
CN(C)S(=O)(=O)N1CCC(Oc2ccc(C(=O)NC3CCOC(C)(C)C3)cc2)CC1 (stereo not drawn)	i	1
COCc1nc2ccccc2n1CCCOc1ccccc1	i	0.36
O=C(NC1CCCC1)C(c1ccccc1)N(Cc1ccco1)C(=O)Cc1cccs1 (stereo not drawn)	i	-0.13
N#C/C(=C\c1c(N2CCCCCC2)nc2ccccn2c1=O)C(=O)NCc1ccco1	i	1
COc1cc2c(cc1OC)CN(C(=O)c1ccc(N3CCCC3)c([N+](=O)[O-])c1)CC2	i	0.09
CCOC(=O)c1cnn(-c2nc(-c3cccc(F)c3)cs2)c1C(F)(F)F	i	-0.21
O=C(CCNC(=O)c1ccccc1Cl)OCC(=O)c1ccccc1	i	0.28
COc1cc(NC(=O)c2cccs2)c(OC)cc1NC(=O)c1cccs1	i	-0.28
CCOc1ccc(N2C(=O)CC(SCCN)C2=O)cc1 (stereo not drawn)	i	-1.4

6 records drawn at random from those above:
SMILES	KCNQ2 inh	KCNQ2 inh baseline
COc1ccc(C(=O)Nc2cc(C)c(NC(=O)c3ccccc3OC)cn2)cc1	i	0.02
CN(C)S(=O)(=O)N1CCC(Oc2ccc(C(=O)NC3CCOC(C)(C)C3)cc2)CC1 (stereo not drawn)	i	1
O=C(NC1CCCC1)C(c1ccccc1)N(Cc1ccco1)C(=O)Cc1cccs1 (stereo not drawn)	i	-0.13
NC(=O)CC(NC(=O)Cc1cccc2ccccc12)c1ccc(N2CCCCCCC2)c([N+](=O)[O-])c1 (stereo not drawn)	i	0.12
CCN1CCCc2cc(CN(CCN3CCOCC3)C(=S)Nc3ccc(C)cc3)ccc21	i	-0.49
N#C/C(=C\c1c(N2CCCCCC2)nc2ccccn2c1=O)C(=O)NCc1ccco1	i	1

5 compounds already listed, sorted by molecular weight, low to high:
SMILES	KCNQ2 inh	KCNQ2 inh baseline
Cc1c(NC(=O)Oc2ccccc2)sc(=S)n1C	i	0.44
Cc1nn(CCCC(=O)NCc2ccccc2)c(=O)c2nccn12	i	-0.35
CCc1c(C)sc(NC(=O)c2cccs2)c1C(=O)OC(C)C	i	0.21
COc1cc(C(c2sc3nc(C)nn3c2O)N2CC(C)CC(C)C2)cc(OC)c1OC (stereo not drawn)	i	2.1
O=C(CC1C(=O)N(Cc2ccccc2)C(=S)N1CCN1CCOCC1)Nc1ccc(F)cc1 (stereo not drawn)	i	0.35

The list continues.
SMILES	KCNQ2 inh	KCNQ2 inh baseline
COc1cc(/C=C/C(=O)O)cc(S(=O)(=O)NCCCO)c1OC	i	0.71
COC(=O)c1sc(NC(=O)c2cccc([N+](=O)[O-])c2)c(C(N)=O)c1C	i	0.65
COC(=O)c1cn(C(=O)c2ccc(C)c(C)c2)c2ccccc12	i	0.56
Cc1cc(F)ccc1N1CCC(N2CCN(C)C(CCO)C2)CC1 (stereo not drawn)	i	-0.3
Cc1cc(C(=O)NCCC2=CCCCC2)ccc1[N+](=O)[O-]	i	-0.39
OCCN(CC#CC(O)(c1ccccc1)C1CCCCC1)CCO (stereo not drawn)	i	-0.99
Cc1cc(C)c(NC(=O)Nc2ccc3c(c2)OCO3)c(C)c1	i	1.6
CCCCNS(=O)(=O)c1ccc2nc(SCC(=O)c3ccc(C#N)cc3)[nH]c2c1	i	0.16
Cc1cc(C(C)(C)C)ccc1OCCN(C)C	i	-2.2
CCOc1ccc(NC(=O)Nc2cc(C(C)C)c(O)cc2C)cc1	i	0.21
CCOCCCNS(=O)(=O)c1ccc(NC(=O)N2c3ccccc3Sc3ccccc32)cc1	i	1.1

Only part of the results is shown, so the mix of outcomes need not match the whole.
